Assay outcomes deposited in PubChem BioAssay by National Center for Advancing Translational Sciences (NCATS).
HSD17B inhib: blocks hydroxysteroid 17-beta dehydrogenase activity; recombinant HSD17B10, NADH fluorescence kinetic; many of its hits are not listed in these tables; Potency, µM (doses to about 57.1 µM), for the others: at the top dose activity change, negative = inhibition, usual class: inhibitors; hit rate 7.6% among 75,000; active = well fitted inhibition curve with a large enough effect; inconclusive = small, poorly fitted or top-dose-only effect; inactive = no such curve, though single readings can be large or run the other way;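 note: the protocol describes HADH2 (HSD17B10) and not the HSD17B4 of the title; nearly all actives have a fitted effect of over 70% in size; most hits overshoot -100% by far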
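20 nM HADH2, pH 9.0 Tris/Tween; cpd preinc 15 min RT; start w/ 1 mM NAD+ + 90 uM b-hydroxybutyryl-CoA; kinetic fluor ex360/em450 q30s x 4 min; delta last-first.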
Numbers without * were called inactive; [ ] = another dose, or the depositor's remark. % is set by controls: 0 for no effect and ±100 for the full control effect; potency is the fitted concentration of half-maximal effect. Only part of the results is shown; rates above refer to the full screens.

What do the screens show for `COc1cccc(Cn2c(=O)c(-c3cc(F)cc(F)c3)nc3cnc(OC)nc32)c1`?
HSD17B inhib: inconclusive

Results for O=C(Nc1ncc2c(n1)CC(c1ccccc1)CC2=O)c1ccco1 (stereo unspecified) ?
HSD17B inhib: 0%

Results for Brc1ccccc1-c1ccccc1 ?
HSD17B inhib: 1%

How did CCCCCn1c(=O)[nH]c2cc(C(=O)NCc3ccc4c(c3)OCO4)ccc2c1=O do in these assays?
HSD17B inhib: inconclusive

How did CCc1ccccc1-n1cnc2cc(C(=O)O)ccc21 do in these assays?
HSD17B inhib: 17%

Results for C=C1c2cc(CC)ccc2NC(=O)N1c1ccc(C)cc1 ?
HSD17B inhib: inconclusive

How did Cc1ccc2oc(=O)c3cnn(CC(=O)NCCc4ccsc4)c3c2c1 do in these assays?
HSD17B inhib: -8%

Results for COc1ccc2cnn(-c3ccccc3)c(=O)c2c1OC ?
HSD17B inhib: 14%

How did CCOC(=O)N1CCC(N2C(=O)c3ccccc3C2Nc2cccnc2)CC1 (stereo unspecified) do in these assays?
HSD17B inhib: -3%

What do the screens show for `COc1ccc2c(c1)c1nnc(SC)nc1n2C`?
HSD17B inhib: 8%

The last two entries of the part before lead into the next:
How did CCOC(=O)N1CCC(N2C(=O)c3ccccc3C2Nc2cccnc2)CC1 (stereo unspecified) do in these assays?
HSD17B inhib: -3%

What do the screens show for `COc1ccc2c(c1)c1nnc(SC)nc1n2C`?
HSD17B inhib: 8%

How did Cc1cc(N=CC2=C(O)CCCC2=O)no1 do in these assays?
HSD17B inhib: 2%

Results for CN=c1oc2ccc(Cl)cc2cc1C(N)=O ?
HSD17B inhib: 25µM*

Results for CCOC(=O)N1CCN(CC(=O)Nc2c(C(=O)OC)[nH]c3cccc(Cl)c23)CC1 ?
HSD17B inhib: 25µM*

What do the screens show for `COc1ccccc1-c1noc(-c2ccncc2)n1`?
HSD17B inhib: -3%

How did c1ccc2c(c1)CC1(CCCC1)n1nnnc1-2 do in these assays?
HSD17B inhib: 4%

How did Cc1cc(C)n(CC(O)CN2c3ccccc3Sc3ccccc32)n1 (stereo unspecified) do in these assays?
HSD17B inhib: -17%

How did O=C(c1ccco1)N1CCN(c2ccc(S(=O)(=O)N3CCCC3)cc2)CC1 do in these assays?
HSD17B inhib: -5%

What do the screens show for `Cc1ccc(S(=O)(=O)NCC(=O)OCC(=O)Nc2ncc(Cl)cc2Cl)cc1`?
HSD17B inhib: -9%

Results for COc1ccc(O[C@H]2C=C[C@@H](c3ccccc3)O[C@H]2COC(=O)NCc2cccc3ccccc23)cc1 ?
HSD17B inhib: 0%[11.4 µM]

What do the screens show for `O=C(c1ccccc1)N1CCN(C(=O)N2CCCCC2)CC1`?
HSD17B inhib: 4%

What do the screens show for `CN(CCNS(=O)(=O)c1ccc2c(c1)oc(=O)n2C)Cc1ccccc1`?
HSD17B inhib: 11%

What do the screens show for `CCOC(=O)c1sc(NC(=O)CSc2nnnn2-c2ccccc2)c(C(=O)OCC)c1C`?
HSD17B inhib: -8%

Results for Cn1nnnc1SCC(=O)Nc1ccccc1C(=O)NCc1ccccc1 ?
HSD17B inhib: 7%

How did c1nc(NC2CCCC2)c2[nH]cnc2n1 do in these assays?
HSD17B inhib: 4%

How did CCOc1ccc2cc(C#N)c(SCC(=O)N3CCOCC3)nc2c1 do in these assays?
HSD17B inhib: 25µM*

What do the screens show for `CCCn1c(SCC(=O)NCc2ccco2)nc2c1c(=O)n(C)c(=O)n2C`?
HSD17B inhib: 4%

What do the screens show for `COc1cccc(NC(=O)CSc2nnc(-c3ccc(C)cc3)o2)c1`?
HSD17B inhib: -21%

How did CCOC(=O)CC(=O)CSc1ccc2nnc(-c3ccc(F)cc3)n2n1 do in these assays?
HSD17B inhib: inconclusive

How did Cn1c(=O)c2c(nc(N3CCN(Cc4ccccc4)CC3)n2CCCc2ccccc2)n(C)c1=O do in these assays?
HSD17B inhib: -6%

How did CCC1CCCCN1C(=O)CSc1nnc(-c2cccc(Cl)c2)o1 (stereo unspecified) do in these assays?
HSD17B inhib: -12%

What do the screens show for `Cc1ccc(CN2C(=O)CCC2C(=O)NCC2CCCO2)cc1` (stereo unspecified)?
HSD17B inhib: 15%

How did COc1ccccc1N1CCN(C(=O)CCn2c(=O)[nH]c3ccsc3c2=O)CC1 do in these assays?
HSD17B inhib: 1%

Results for Cn1c(SCc2ccc(C#N)cc2)nnc1-c1ccccc1 ?
HSD17B inhib: 2%

How did Cc1cc(C)n(-c2nnc(C)n2NS(C)(=O)=O)n1 do in these assays?
HSD17B inhib: 6%

What do the screens show for `COc1cccc(CNc2cccc3cccnc23)c1O`?
HSD17B inhib: -7%

Results for O=C(c1cccc(F)c1)N1CCC[C@@]2(CCN(Cc3nccs3)C2)C1 ?
HSD17B inhib: 6%

Results for CC(=O)Nc1ccc(S(=O)(=O)NCc2csc(C)n2)cc1 ?
HSD17B inhib: 2%

How did CCOC(OCC)P(=O)(C(C)C)C(C)C do in these assays?
HSD17B inhib: 3%

What do the screens show for `C/C(N)=C(/C#N)C(=O)CSc1nnc(Cc2ccccc2F)n1N`?
HSD17B inhib: -5%

What do the screens show for `COC(=O)c1[nH]c2cc(C)ccc2c1NC(=O)CN1CCCc2ccccc21`?
HSD17B inhib: -16%

What do the screens show for `COc1ccccc1Nc1nnc(SCC(=O)N2CCCC2)s1`?
HSD17B inhib: 5%

How did O=C(c1c(Cl)cccc1Cl)N1CCCCCC1 do in these assays?
HSD17B inhib: 3%

Results for CC1(C)CC(=O)C=C(NC2CCCCCC2)C1 ?
HSD17B inhib: 0%

How did CN(C(=O)c1ccco1)c1nnc(C23CC4CC(CC(C4)C2)C3)s1 do in these assays?
HSD17B inhib: -21%

What do the screens show for `Cc1cccc(OCCCCCn2ccnc2)c1C`?
HSD17B inhib: 5%

Results for CC(=O)NC(CCS(C)(=O)=O)C(=O)Nc1ccc(F)cc1Cl (stereo unspecified) ?
HSD17B inhib: 6%

Results for Cc1ccc(C(C)C)c(OCc2nnc(SCC(=O)Nc3ncc(C)s3)n2C)c1 ?
HSD17B inhib: 7%

Results for CC1Cc2ccccc2N1C(=O)CSc1nnc(Cn2nnc3ccccc32)n1C (stereo unspecified) ?
HSD17B inhib: 4%

What do the screens show for `CC1=C(C(N)=O)C(c2ccccn2)n2nc(SCc3ccccc3)nc2N1` (stereo unspecified)?
HSD17B inhib: inconclusive

Results for CCOc1ccccc1C(=O)Nc1nncs1 ?
HSD17B inhib: 2%

What do the screens show for `Cc1cccc(C)c1O`?
HSD17B inhib: -2%

How did CCCCOC(OCCCC)[C@H](O)CSc1ccc2ccccc2c1 do in these assays?
HSD17B inhib: -7%[11.4 µM]

Results for CC(C)c1ccc(C(=O)Nc2ccc(N3CCOCC3)cc2)cc1 ?
HSD17B inhib: -8%

How did O=C(O)CCCCCNCc1ccncc1 do in these assays?
HSD17B inhib: 5%

Results for CN1CCN(CC(=O)N2c3ccccc3C(C)(c3ccccc3)CC2(C)C)CC1 (stereo unspecified) ?
HSD17B inhib: 2%

What do the screens show for `O=C(NC1CCCCC1)n1c(=O)oc2ccc(Cl)cc21`?
HSD17B inhib: 8%

How did CCOc1ccccc1NC(=O)N1CCC(NC(=O)c2cccc(C)c2)CC1 do in these assays?
HSD17B inhib: -7%

Results for O=C(CSc1cccc[n+]1[O-])c1cc2ccccc2o1 ?
HSD17B inhib: -13%

What do the screens show for `O=C(Cc1cccs1)Nc1ccc(NC(=O)c2ccco2)cc1`?
HSD17B inhib: 55%[activator]

Results for CCC1=C2CC[C@H]3C(=O)N(CC)C(=O)[C@H]3[C@H]2[C@@]2(Cc3ccccc3)C(=NCCOC)OC(=O)N2C1=O ?
HSD17B inhib: 0%

What do the screens show for `Cc1ccc(N2CC(C(=O)Nc3ccc4c(c3)OCO4)CC2=O)cc1` (stereo unspecified)?
HSD17B inhib: 4%

Results for COc1ccc(-c2nnc(SCC(=O)Nc3cc(F)ccc3C)o2)cc1 ?
HSD17B inhib: inconclusive

Results for CCN(CC)CC(=O)Nc1c(C)cc(C(C)(C)C)cc1C ?
HSD17B inhib: 6%

How did O=C(Cn1cnc2c(nnn2Cc2ccc(Cl)cc2)c1=O)NCC1CCCO1 (stereo unspecified) do in these assays?
HSD17B inhib: 2%

What do the screens show for `COc1ccccc1-n1c(C)nnc1SCC(=O)Nc1cc(C)cc(C)c1`?
HSD17B inhib: -3%

What do the screens show for `CC[C@H](C)C(=O)O[C@H]1CCC=C2C=C[C@H](C)[C@H](CC[C@@H]3C[C@H](O)CC(=O)O3)[C@H]21`?
HSD17B inhib: -4%

Results for CS(=O)(=O)N1CCC2(CC1)CN(c1ccc(-c3ccccc3)cc1)C2 ?
HSD17B inhib: inconclusive

Results for CCN=c1scc(C)n1/N=C/c1ccsc1 ?
HSD17B inhib: -1%

Results for NC(=O)CSCc1ccc(Br)cc1 ?
HSD17B inhib: 16%

What do the screens show for `O=C(CSc1nnnn1-c1ccc2c(c1)CCC2)Nc1ccc2c(c1)OCCO2`?
HSD17B inhib: 0%

What do the screens show for `CCn1c(=O)cc(SCC(=O)N2CCN(C3CCCCC3)CC2)c2ccccc21`?
HSD17B inhib: -13%

Results for CCOC(=O)C1CCCN(CC(=O)/C=C2/N(C)c3ccccc3C2(C)C)C1 (stereo unspecified) ?
HSD17B inhib: -17%

How did CCOC(=O)c1ccc(NC(=O)N2CCN(CCc3ccccc3)CC2)cc1 do in these assays?
HSD17B inhib: 8%

What do the screens show for `c1ccc(Nc2ncnc3c2oc2ccccc23)cc1`?
HSD17B inhib: inconclusive

What do the screens show for `O=C(O)C[C@@H]1CCCc2ccccc2[C@H]1O`?
HSD17B inhib: -7%

Results for O=C1CC(N2CCOCC2)C(=O)N1CCc1ccccc1 (stereo unspecified) ?
HSD17B inhib: 3%

What do the screens show for `CC(C)(Oc1ccc(Cl)cc1)C(=O)Nc1cccnc1`?
HSD17B inhib: 2%

How did Cc1cccc(OCc2nc(C#N)c(N3CC(C)CC(C)C3)o2)c1 (stereo unspecified) do in these assays?
HSD17B inhib: -6%

What do the screens show for `Brc1ccccc1-c1nc(-c2ccccc2)no1`?
HSD17B inhib: -3%

Results for Cc1cc(N2CCOCC2)c2c(N)c(C)cc(C)c2n1 ?
HSD17B inhib: -10%

What do the screens show for `Cc1nc(CNS(=O)(=O)c2cccc(F)c2)cs1`?
HSD17B inhib: 0%

What do the screens show for `COc1cc(C2c3c(oc4ccccc4c3=O)C(=O)N2Cc2cccnc2)cc(OC)c1OC` (stereo unspecified)?
HSD17B inhib: 1%

What do the screens show for `COCCCNCCOCCOc1c(OC)cccc1OC`?
HSD17B inhib: 0%

Results for O=C(CSc1nc2c(c(=O)n1-c1ccc(Cl)cc1)SCC2)Nc1nccs1 ?
HSD17B inhib: 3%

Results for CCOCCN(C=O)c1cccc(OC)c1 ?
HSD17B inhib: 4%

How did COc1cccc(CCC(=O)O)c1OC do in these assays?
HSD17B inhib: 9%

What do the screens show for `COc1cc2c(cc1OC)-c1nnc(C)n1C(C)(C)C2`?
HSD17B inhib: 6%

How did Cc1nn(-c2ccccc2)c(C)c1C(=O)OCC(=O)Nc1ccc2c(c1)OCO2 do in these assays?
HSD17B inhib: 3%

Results for c1ccc2c(c1)ncn2Cc1nnc2sc(-c3ccc4c(c3)OCO4)nn12 ?
HSD17B inhib: 32µM*

Results for COc1ccc(OC(=O)c2cccc(S(=O)(=O)N3CCCC3)c2)cc1 ?
HSD17B inhib: -10%

What do the screens show for `C(=C\c1ccco1)/C=N/n1cnnc1`?
HSD17B inhib: -22%

Results for O=C(CSc1nnc(-c2ccc(Br)cc2)n1C1CCCCC1)N1CCCC1 ?
HSD17B inhib: 5%

Results for O=C(CN1CCOCC1)N1CCN(C(=O)CN2CCOCC2)CC1 ?
HSD17B inhib: 13%

What do the screens show for `COC(=O)c1ccc(C(=O)OC)c(NC(=O)CCC(=O)O)c1`?
HSD17B inhib: 25µM*

What do the screens show for `COc1ccc(C(=O)CSc2nc(SC)ns2)cc1OC`?
HSD17B inhib: -12%

How did O=C(Cn1c(C2CC2)nc2ccccc2c1=O)Nc1ccc(Br)cc1 do in these assays?
HSD17B inhib: 0%

Results for O=C(Nc1ccc2oc(-c3ccccc3F)nc2c1)c1ccc2c(c1)OCCO2 ?
HSD17B inhib: 32µM*

How did CC1CC1C(=O)OCc1cc(=O)n2cc(Br)ccc2n1 (stereo unspecified) do in these assays?
HSD17B inhib: -15%

Gathered by group, the compounds so far with a Cl atom (10)
Results for CN=c1oc2ccc(Cl)cc2cc1C(N)=O ?
HSD17B inhib: 25µM*

Results for CCOC(=O)N1CCN(CC(=O)Nc2c(C(=O)OC)[nH]c3cccc(Cl)c23)CC1 ?
HSD17B inhib: 25µM*

What do the screens show for `Cc1ccc(S(=O)(=O)NCC(=O)OCC(=O)Nc2ncc(Cl)cc2Cl)cc1`?
HSD17B inhib: -9%

How did CCC1CCCCN1C(=O)CSc1nnc(-c2cccc(Cl)c2)o1 (stereo unspecified) do in these assays?
HSD17B inhib: -12%

How did O=C(c1c(Cl)cccc1Cl)N1CCCCCC1 do in these assays?
HSD17B inhib: 3%

Results for CC(=O)NC(CCS(C)(=O)=O)C(=O)Nc1ccc(F)cc1Cl (stereo unspecified) ?
HSD17B inhib: 6%

What do the screens show for `O=C(NC1CCCCC1)n1c(=O)oc2ccc(Cl)cc21`?
HSD17B inhib: 8%

How did O=C(Cn1cnc2c(nnn2Cc2ccc(Cl)cc2)c1=O)NCC1CCCO1 (stereo unspecified) do in these assays?
HSD17B inhib: 2%

What do the screens show for `CC(C)(Oc1ccc(Cl)cc1)C(=O)Nc1cccnc1`?
HSD17B inhib: 2%

Results for O=C(CSc1nc2c(c(=O)n1-c1ccc(Cl)cc1)SCC2)Nc1nccs1 ?
HSD17B inhib: 3%
